# Cruzain inh Det: inhibitors of Trypanosoma cruzi cruzain with detergent; P25779; purified cruzain, Z-FR-AMC fluorescence, 0.01% Triton; Potency, µM, for the others: max response, negative = inhibition, hits mostly inhibitors; 200,000 tested, 0.43% active; AID 1478; active = well fitted curve in the direction sought with a large enough effect; inconclusive = small, poorly fitted or top-dose-only effect, or another doubt; inactive = no such curve, though single readings can be large; an effect the other way counts as inactive or inconclusive;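 also: plate controls were neutral wells for no effect and buffer without enzyme for full effect; nearly all actives have a fitted effect of over 40% in size; top concentration of the series not given in the record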
# Target sequence (P25779 123-467 limits assumed): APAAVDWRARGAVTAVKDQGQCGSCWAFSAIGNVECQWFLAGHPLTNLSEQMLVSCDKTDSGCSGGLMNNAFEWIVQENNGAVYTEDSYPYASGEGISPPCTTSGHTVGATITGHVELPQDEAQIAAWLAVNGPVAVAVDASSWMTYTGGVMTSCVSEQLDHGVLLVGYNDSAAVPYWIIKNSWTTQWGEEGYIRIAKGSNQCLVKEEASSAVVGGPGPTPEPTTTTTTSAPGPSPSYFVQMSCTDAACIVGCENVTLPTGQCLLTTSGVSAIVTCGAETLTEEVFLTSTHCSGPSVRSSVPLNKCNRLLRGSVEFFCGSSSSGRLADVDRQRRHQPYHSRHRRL
#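 Steps: dispense cruzain (1.5 nM final) in acetate buffer pH 5.5 with DTT and 0.01% Triton X-100; pin-transfer compounds; incubate 15 min RT; add Z-FR-AMC (2 uM final); read fluorescence every 30 s, using the 60 s intensity change.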
# MARV entry inh: inhibitors of Marburg virus binding or cell entry | Marburg virus pseudotyped entry inhibition, cell reporter; control for the full effect not named in the record; about a third of the inactives were read at about 46 µM | AID 540276 | Potency, µM (series often up to 37.8 µM), without a hit: at the highest dose activity change, negative = inhibition, usual class: inhibitors | 300,000 tested, 1.8% active; active = well fitted inhibition curve with a large enough effect; inconclusive = small, poorly fitted or top-dose-only effect, or effect the other way; inactive = flat fitted curve, though single readings scatter; tested in HEK293 cells; about a fifth of its hits are not listed in these tables; also: % is scaled to controls: 0 for no effect and ±100 for the full control effect; luciferase read-out
# NS1 function inh: inhibitors of influenza NS1 protein function | S. cerevisiae slowed by influenza A NS1, growth recovery by OD600 | Potency, µM (titrated, usually from 46.1 µM), without a hit: at the highest dose activity, positive = more growth | 270,000 tested, 0.4% active; also: actives are rising curves; nearly all actives have a fitted effect of over 50% in size
#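 Read-out: OD600 growth recovery of NS1-expressing budding yeast. Cells grown overnight at 30C in -URA glucose medium, washed, resuspended and diluted 1:100 in 2% galactose assay medium, pH 6.0. Same strain lacking NS1 served as positive control.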
# SARS PLpro yeast: SARS-CoV PLP inhibition in yeast. S. cerevisiae expressing SARS-CoV PLpro, growth rescue; control for the full effect not named in the record. Potency, µM (doses to about 32.9 µM), without a hit: top-dose activity, positive = growth rescue. 330,000 tested, 0.19% active. AID 485353; also: 0% is about no effect; nearly all actives have a fitted effect of over 55% in size; growth read by luminescence after 48 h
# RE007 growth inh: less growth of the S. pombe RE007 Vpr strain; 360,000 tested, 0.21% active; S. pombe RE007 Vpr strain, BacTiter-Glo ATP luminescence, 24 h; control for the full effect not named in the record; Potency, µM (doses to about 92.2 µM), for the others: top-dose activity change, negative = less growth; active = well fitted falling curve with a large enough effect; inconclusive = small, poorly fitted or top-dose-only effect; inactive = no such curve, though single readings can be large or run the other way;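 also: % is scaled to controls: 0 for no effect and ±100 for the full control effect; nearly all actives have a fitted effect of over 50% in size; the assay follows cell death caused by Vpr and the record does not say whether a fall means rescue or toxicity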
#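 Fission yeast RE007 carrying one integrated HIV-1 vpr copy, seeded at OD 0.01 in PMG+AL medium with 23 nL pinned compound. Grown 24 h at 30 degrees; viability read by BacTiter-Glo luminescence after 5 min.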
# LASV entry inh: Lassa virus entry inhibition; Lassa virus pseudotype entry inhibition, cell reporter; control for the full effect not named in the record; Potency, µM (titrated, usually from 37.9 µM), without a hit: at the highest dose activity change, negative = inhibition, hits mostly inhibitors; 300,000 tested, 1.2% active; active means well fitted inhibition curve with a large enough effect; inconclusive means small, poorly fitted or top-dose-only effect, or effect the other way; inactive means flat fitted curve, though single readings scatter; tested in HEK293 cells; also: % is scaled to controls: 0 for no effect and ±100 for the full control effect; nearly all actives have a fitted effect of over 50% in size; luciferase read-out
# StopGo reporter: lowers the luciferase signal of an FMDV 2A StopGo reporter; human cells with a luciferase reporter of 2A StopGo recoding; control for the full effect not named in the record; Potency, µM (titrated, usually from 57.9 µM), without a hit: top-dose signal change, negative = less light; 410,000 tested, 1.2% active; AID 1159524; active = well fitted falling curve with a large enough effect; inconclusive = small, poorly fitted or top-dose-only effect; inactive = no such curve, though single readings can be large or run the other way; tested in HEK293T cells; also: % is scaled to controls: 0 for no effect and ±100 for the full control effect; nearly all actives have a fitted effect of over 45% in size; luciferase light after 4 h
# Cruzain inh noDet: blocks cruzain activity in detergent-free assay | P25779 | Potency, µM, inactives show max response, negative = inhibition, usual class: inhibitors | purified cruzain, Z-FR-AMC fluorescence, no detergent | 200,000 tested, 2.3% active; active = well fitted curve in the direction sought with a large enough effect; inconclusive = small, poorly fitted or top-dose-only effect, or another doubt; inactive = no such curve, though single readings can be large; an effect the other way counts as inactive or inconclusive;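 also: plate controls were enzyme without inhibitor for no effect and buffer without enzyme for full effect; nearly all actives have a fitted effect of over 40% in size; top concentration of the series not given in the record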
#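 Purified cruzain at 1.5 nM, pre-incubated 15 min with compound at room temperature in 100 mM sodium acetate pH 5.5, 5 mM DTT, 0.00005% Triton X-100. Reaction started with 2 uM Z-FR-AMC; AMC fluorescence increase over 60 s gives rate.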
# * marks the source's active call; other numbers are inactive results; ? = inconclusive; / = not tested or not shown; & = joins results of further samples; [ ] = remark or other dose. Unless noted, calls follow the shape of the dose curve; as a rule, active means well fitted rising curve with a large enough effect; inconclusive means small, poorly fitted or top-dose-only effect; inactive means no such curve, though single readings can be large or run the other way. Potency is read from the fitted curve at half-maximal effect. Random draw from the library; about 4.8% have a hit in one of these screens.
SMILES,Cruzain inh Det,MARV entry inh,NS1 function inh,SARS PLpro yeast,RE007 growth inh,LASV entry inh,StopGo reporter,Cruzain inh noDet
O=C(Nc1ccc(F)cc1)C(=O)c1cn(CC(=O)N2CCOCC2)c2ccccc12,/,/,5%,4%,-6%,/,24%,/
Cc1ccc(C)c(S(=O)(=O)NC(CC(C)C)C(=O)O)c1 (stereo not drawn),6.5%,?,8%,5%,25%,4%,-6%,6%
CON1C(=O)C(=O)N(OC)C2CCCCCC21 (stereo not drawn),-0.5%,-11%,0%,13%,-15%,13%,-17%,10%
O=C(O)CSc1nnc2c(n1)[nH]c1ccccc12,/,17%[46.1 µM],/,-4%,36%,20%,12%,/
O=C(/C=C/Nc1ccccc1F)c1cccs1,-5.3%,6.3µM*,-19%,-5%,-25%,1.4µM*,13µM*,-5%
COc1cc(CCC(=O)Nc2nccs2)cc(OC)c1OC,/,/,-1%,1%,-6%,/,-19%,/
COc1ccccc1-c1cc(C(=O)NN)[nH]n1,/,-26%[46.1 µM],?,-1%,24%,-13%,15%,/
O=C(CNC(=O)c1ccccc1F)NCCc1ccc(Cl)cc1,/,?,0%,9%,-10%,10%[46.1 µM],5%,/
CC1CCN(C(=O)C2(NC(=O)Nc3cccc(F)c3)CCCCC2)CC1,3.1%,14%,12%,-5%,15%,1%,-3%,-10%
COc1cccc(C(c2c(O)cc(C)n(Cc3ccco3)c2=O)N2CCC(C)CC2)c1 (stereo not drawn),0.2%,/,/,/,/,-5%[46.1 µM],-20%,?
O=C(O)c1ccc(S(=O)(=O)c2ccc3c(c2)C(=O)N(c2ccc(Br)cc2)C3=O)cc1,/,5%[46.1 µM],3%,1%,-10%,/,4%,/
COc1ccccc1C(O)(C(=O)N(NC(C)=O)c1ccccc1)c1ccccc1OC,/,-14%[46.1 µM],7%,1%,7%,1%[46.1 µM],-7%,/
CCOc1cc(C)c(Cl)cc1S(=O)(=O)n1nnc2ccccc21,4.5%,5%,-50%,-4%,-11%[3.69 µM],-6%,1%,-3%
C/C(=N\NC(=O)c1cccc(S(=O)(=O)N2CCCCC2)c1)c1ccc(C)o1,/,-4%,/,-2%,24%,0%,3%,/
O=C(Cn1cnc2sc(-c3ccccc3)cc2c1=O)NCc1ccco1,-7.9%,/,?,0%,-8%,-10%,0%,?
CCC(=O)Nc1ccc(C(=O)Nc2cccc(C)n2)cc1,/,/,-2%,0%,-12%,/,28%,/
Cn1cc(CN(Cc2ccccc2)C[C@@H]2CCC(=O)N2)c(-c2ccccc2F)n1,/,-5%[46.1 µM],-5%,-1%,-2%,?,19%,/
CCOc1ccc(OCc2ccc(C(=O)NCc3cccnc3)o2)cc1,-0.5%,-9%,10%,-1%,22%,1%,-24%,-4%
CC(C)(C)NC(=O)c1sccc1C(=O)O,0.7%,?,-75%,-11%,0%,-23%[14.3 µM],-6%,-4%
Cn1c(=O)c2cc(C(=O)NCCCN3CCN(c4cccc(Cl)c4)CC3)sc2c2ccccc21,-4.1%,7%[46.1 µM],/,/,/,?,-20%,-2%
NCCc1c[nH]c2ccc(OCc3ccccc3)cc12,/,5%[14.2 µM],18%,-1%,-8%,-5%,7%,/
COc1ccccc1NC1CCCCC1NS(=O)(=O)c1ccccc1 (stereo not drawn),/,/,11%,7%,1%,/,-6%,/
COc1ccccc1NC(=O)c1ccc(NC(=O)Cc2n[nH]c(=O)c3ccccc23)cc1,/,/,-2%,0%,-8%,/,-8%,/
COc1cccc(N2C(=O)NC(=O)C3(Cc4cc(C)ccc4N(C)C3)C2=O)c1 (stereo not drawn),1.9%,17%,?,-1%,2%,-1%,-1%,-6%

# An excerpt of these results, field by field.
SMILES: CCOc1ccc(OCc2ccc(C(=O)NCc3cccnc3)o2)cc1
  Cruzain inh Det = -0.5%; MARV entry inh = -9%; NS1 function inh = 10%; SARS PLpro yeast = -1%; RE007 growth inh = 22%; LASV entry inh = 1%; StopGo reporter = -24%; Cruzain inh noDet = -4%

SMILES: CC(C)(C)NC(=O)c1sccc1C(=O)O
  Cruzain inh Det = 0.7%; MARV entry inh = ?; NS1 function inh = -75%; SARS PLpro yeast = -11%; RE007 growth inh = 0%; LASV entry inh = -23%[14.3 µM]; StopGo reporter = -6%; Cruzain inh noDet = -4%

SMILES: Cn1c(=O)c2cc(C(=O)NCCCN3CCN(c4cccc(Cl)c4)CC3)sc2c2ccccc21
  Cruzain inh Det = -4.1%; MARV entry inh = 7%[46.1 µM]; NS1 function inh = /; SARS PLpro yeast = /; RE007 growth inh = /; LASV entry inh = ?; StopGo reporter = -20%; Cruzain inh noDet = -2%

SMILES: NCCc1c[nH]c2ccc(OCc3ccccc3)cc12
  Cruzain inh Det = /; MARV entry inh = 5%[14.2 µM]; NS1 function inh = 18%; SARS PLpro yeast = -1%; RE007 growth inh = -8%; LASV entry inh = -5%; StopGo reporter = 7%; Cruzain inh noDet = /

# Continued:
SMILES,Cruzain inh Det,MARV entry inh,NS1 function inh,SARS PLpro yeast,RE007 growth inh,LASV entry inh,StopGo reporter,Cruzain inh noDet
C=CCNC(=S)N1CCN(Cc2ccc3c(c2)OCO3)CC1,/,/,14%,3%,3%,/,-7%,/
CC(=O)Nc1nc(-c2ccc3ccccc3c2)cs1,/,?,-2%,-1%,3%,?,24%,/
COc1ccccc1C(=O)Nc1nnc(S(=O)(=O)N2CCCCCC2)s1,-3.3%,/,-6%,1%,0%,3%[46.1 µM],17%&35%,8%
COc1ccc(NC(=O)CNc2cccc(C#N)c2)cc1Cl,-5.9%,21%[46.1 µM],-2%,-5%,5%,-2%,32%[activator],-19%
COc1ccccc1N1CCC(N2CCN(CC(C)(C)C)C(CCO)C2)CC1 (stereo not drawn),/,-14%[46.1 µM],1%,0%,-1%,15%[46.1 µM],-15%,/
Cc1nn(CC(=O)NCc2ccc(-n3cccn3)cc2)c(C)c1[N+](=O)[O-],-3.6%,25%,0%,?,-1%,-4%,-12%,-7%
COc1ccc(-c2nnn(CC(=O)N(CC(=O)NCCC(C)C)Cc3cccs3)n2)cc1OC,-1.3%,3%&-10%,6%,-3%,-7%,2%,8%,?
CC1(OC(=O)c2cnc3ccccc3n2)C(=O)C=C2C=C(c3ccc(C#N)cc3)OC=C2C1=O (stereo not drawn),-2.2%&0.3%,-8%&-8%&-8%[14.2 µM],/,/,/,23%[14.3 µM],/,-9%&14%
CCN(CC)S(=O)(=O)c1ccc(OC(C)C)c(NC(=O)c2c3c(nc4ccccc24)CCN(Cc2ccccc2)C3)c1,-3.6%,?,-8%,26%,3%,?,-7%,6%
CC1(C)C(=O)Nc2ccccc2N1C(=O)COC(=O)c1ccc(Cl)c(S(=O)(=O)NCc2ccccc2)c1,0.3%,?,-20%,3%,-2%,?,-2%,-28%
C#CCn1c(=NC(=O)c2cccs2)sc2cccc(OC)c21,-15%,/,3%,1%,1%,/,5%,?
CCc1ccc(NC(=O)c2cc3c(=O)n(Cc4cccnc4)ccc3nc2C)cc1,-1.6%,/,/,/,/,20%[46.1 µM],-6%,24%
CCOC(=O)C1=C(N)OC2=C(C(=O)CCC2)C12C(=O)N(CC(N)=O)c1ccccc12 (stereo not drawn),0.5%,12%,8%,0%,-16%,?,-4%,4%
Cc1ccc(Cl)cc1NC(=S)N(Cc1cccs1)C1CCCC1,/,?,-6%,-1%,-14%,?,-15%,/
Cc1cc(C)n(CC(O)CN(c2cccc([N+](=O)[O-])c2)S(=O)(=O)c2ccccc2)n1 (stereo not drawn),/,-26%[46.1 µM],-5%,-1%,-3%,-11%,7%,/
Cc1c(NC(=O)C(C)OC(=O)CC2Sc3ccccc3NC2=O)c(=O)n(-c2ccccc2)n1C (stereo not drawn),-3.9%,5%,-8%,-2%,-5%[3.69 µM],1%,47%[activator],9%
O=C1OCCC1Sc1nc2ccccc2[nH]1 (stereo not drawn),1.7%,-5%,-7%,2%,-5%,-3%,11%,4%
COc1ccc(N2CCN(C(=O)c3cccc(F)c3)CC2)c([N+](=O)[O-])c1,/,-15%[46.1 µM],-3%,-1%,4%,11%[46.1 µM],-16%,/
COC(=O)C1C2C=CC3(CN(CC4CCCO4)C(=O)C13)O2 (stereo not drawn),4.8%,13%[46.1 µM],6%,2%,15%,6%,-18%,7%
CCOc1ccc2oc(=O)cc(CN3CCN(C(=O)c4ccc(OC)c(OC)c4)CC3)c2c1,-6.4%,?,/,/,/,-1%[46.1 µM],-23%,?
CCO[C@@H]1OC(C(=O)NC2CC2)=C[C@H](c2ccc3c(c2)OCO3)[C@H]1CCCO,/,/,4%,-2%,32%,/,-7%,/
O=S(=O)(Nc1cccnc1)c1ccc(Cl)cc1,1.9%,12%,6%,4%,13%,22%,6%,9%
O=C(O)C1CCN(S(=O)(=O)c2cccnc2)CC1,4.4%,-2%,14%,4%,27%,3%,-11%,-3%
CC1(Br)C2CCCC1C2S(=O)(=O)c1ccccc1 (stereo not drawn),-1.6%,?,-15%,-11%,-8%,-8%,0%,-3%
Cn1c2ccccc2c2c(C(=O)NCc3ccco3)cn(C3CCCCC3)c(=O)c21,-6.6%,-24%[46.1 µM],8%,-7%,9%,?,?,17%

# Complete entries, looked up by structure. Screens in order: Cruzain inh Det, MARV entry inh, NS1 function inh, SARS PLpro yeast, RE007 growth inh, LASV entry inh, StopGo reporter, Cruzain inh noDet
# Profile of CCO[C@@H]1OC(C(=O)NC2CC2)=C[C@H](c2ccc3c(c2)OCO3)[C@H]1CCCO : /, /, 4%, -2%, 32%, /, -7%, /
# Profile of Cc1ccc(Cl)cc1NC(=S)N(Cc1cccs1)C1CCCC1 : /, ?, -6%, -1%, -14%, ?, -15%, /

# Source: PubChem
